Source: PubChem (Johns Hopkins Ion Channel Center)
KCNQ2 enhance – enhances the rat KCNQ2 potassium channel | CHO-K1 KCNQ2, FluxOR thallium flux fluorescence; hits give high values | B-score at 10 µM | hit rate 0.54% among 310,000 | AID 2239;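 active = fluorescence ratio B-score at least 3 SD of library B-scores, with initial fluorescence B-score within 3 SD, cut at about 5.3 in these data; same plate scores as AID 2156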;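 note: B-score of peak minus minimum over baseline fluorescence ratio after K+ and Tl+ stimulus; positive B-score means potentiation of KCNQ2 with more thallium influx and brighter signal; only the inactives scoring about 0 or higher are listed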
Target sequence (O88943 whole entry, looked up): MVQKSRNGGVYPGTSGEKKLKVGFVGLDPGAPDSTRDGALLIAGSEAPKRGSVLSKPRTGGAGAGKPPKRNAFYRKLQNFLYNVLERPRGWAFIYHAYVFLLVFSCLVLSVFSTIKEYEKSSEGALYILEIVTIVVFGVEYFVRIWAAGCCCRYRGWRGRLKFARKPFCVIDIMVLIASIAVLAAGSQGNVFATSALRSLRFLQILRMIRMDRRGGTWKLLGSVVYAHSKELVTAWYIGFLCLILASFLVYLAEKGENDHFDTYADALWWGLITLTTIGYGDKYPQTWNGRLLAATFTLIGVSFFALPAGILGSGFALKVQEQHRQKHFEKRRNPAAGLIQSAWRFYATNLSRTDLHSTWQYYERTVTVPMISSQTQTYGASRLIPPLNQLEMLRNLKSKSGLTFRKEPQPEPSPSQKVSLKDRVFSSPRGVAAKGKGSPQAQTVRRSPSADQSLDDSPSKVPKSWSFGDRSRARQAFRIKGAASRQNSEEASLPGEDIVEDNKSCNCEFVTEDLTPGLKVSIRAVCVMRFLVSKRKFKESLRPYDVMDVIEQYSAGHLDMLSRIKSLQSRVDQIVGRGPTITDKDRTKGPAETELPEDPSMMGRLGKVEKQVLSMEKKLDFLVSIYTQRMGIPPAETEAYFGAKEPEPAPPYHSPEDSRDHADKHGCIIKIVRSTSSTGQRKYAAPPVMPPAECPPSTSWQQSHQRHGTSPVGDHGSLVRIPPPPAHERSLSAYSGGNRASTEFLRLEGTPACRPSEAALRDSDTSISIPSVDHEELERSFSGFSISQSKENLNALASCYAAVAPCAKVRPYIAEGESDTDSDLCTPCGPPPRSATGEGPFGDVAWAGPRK
KCNQ2 enhance baseline – also measured in KCNQ2 enhance; calls as there; B-score; compound at 10 µM; measured here: initial fluorescence intensity artifact check;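 brightness before thallium and not channel activity; 0 = typical well and far values either way flag optical interference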
Active calls of the source: *. Only part of the results is shown (hit frequency here may not be typical).

mol,KCNQ2 enhance,KCNQ2 enhance baseline
CCc1ccc(NC(=O)COC(=O)C2(c3ccc(Cl)cc3)CCCC2)cc1,1.2,-1.7
O=C1C2(CCCC13COC(c1ccc(O)cc1)OC3)COC(c1ccc(O)cc1)OC2 (centres undefined),0.02,-0.55
O=C(Nc1ccc2c(c1)OCCO2)c1cccc(C(=O)Nc2ccc3c(c2)OCCO3)c1,0.94,-1
Cc1cccc(N2C(=O)CC(N3CCN(c4ccc(Cl)cc4)CC3)C2=O)c1 (centres undefined),0.78,-0.17
CC(=O)c1ccc(N2CCN(C(=O)CCCn3c(=O)[nH]c4ccc(Br)cc4c3=O)CC2)cc1,0.76,0.52
COCC(=O)N(Cc1cc2ccc(C)c(C)c2n2nnnc12)C1CCCC1,0.46,0.51
Cc1ccc(C(C(=O)NCC2CCCO2)N(C(=O)c2snc(C(N)=O)c2N)c2ccc3c(c2)OCCO3)cc1 (centres undefined),0.16,0.77
CCOCCCNC(=O)/C(C#N)=C/c1cc(Br)c(O)c(Br)c1,0.8,0.96
COc1ccc(O)c(CN2CCCC(N3CCN(c4ccc(F)cc4)CC3)C2)c1 (centres undefined),0.49,-0.14
COc1nc(-c2ccc3c(c2)OCO3)n(-c2ccc(NC(=O)CSc3ccccc3)cc2)n1,0.12,-0.34
CC(OC(=O)c1ccncc1)C(=O)Nc1cccc([N+](=O)[O-])c1 (centres undefined),2,-0.96
COc1ccc(-c2csc(NC(=O)CCCc3nc4ccccc4c(=O)[nH]3)n2)cc1OC,1.8,-0.8
CC(Oc1ccc(Cl)cc1Cl)C(=O)NCCCn1ccnc1 (centres undefined),1.5,-0.6
Cc1ccc(NC(=O)CCNS(=O)(=O)c2ccc3[nH]c(=O)oc3c2)cc1N(C)C,0.47,-0.61
NC(=O)c1ccc(-n2nnnc2SCC(=O)Nc2ccccc2)cc1,1.3,-0.32
COc1ccc(-c2cc(C(=O)Nc3cc(C)on3)no2)cc1OC,0.43,-0.04
Cc1onc(-c2ccccc2)c1C(O)c1ccc(F)cc1 (centres undefined),1.2,-0.07
COc1ccccc1C(=O)NC(=O)COC(=O)CCOc1cc(C)ccc1C,1.1,2.9
Cc1nn(C)c(C)c1CCC(=O)O,0.85,-1.8
CCOc1ccc(-n2c(O)c(/C=N/Nc3nnc(C)c(=O)[nH]3)c3ccccc3c2=O)cc1,0.81,-0.45
CCCCn1c(NCCN(C)C)nc2c1c(=O)[nH]c(=O)n2C,1,0.57
Nc1nc(N)nc(-c2ccc(Oc3ccccc3)cc2)n1,0.26,1.4
O=C(O)Cc1ccc(NS(=O)(=O)c2ccccc2Br)cc1,0.62,0.21
COc1ccc(C2/C(=C(/O)c3ccccc3)C(=O)C(=O)N2C)cc1OC (centres undefined),0.81,0.48
Cc1cc2c(NC(=O)CC(C)(C)CC(=O)O)cccc2nn1,1.7,0.33
Cc1cc([N+](=O)[O-])ccc1NC(=O)CSc1nncn1-c1ccccn1,0.02,-1.8
CC(C)OC(=O)C1C(=O)CC(C)(O)C(C(=O)OC(C)C)C1c1cccc(O)c1 (centres undefined),1.2,-1.4
Cc1cc(SCC(=O)NN)c2cc(Br)ccc2n1,0.28,1.3
CCc1nc(SCC(=O)N2CCCCCC2)c2c(=O)n(C)c(=O)n(C)c2n1,5.5*,1.9*
CCOc1ccc2oc(C(=O)NCc3nc4ccccc4[nH]3)c(C)c2c1,2.2,0.93
O=[N+]([O-])c1cc(S(=O)(=O)O)cc([N+](=O)[O-])c1NN(c1ccccc1)c1ccccc1,0.5,-0.82
Cc1ccsc1C(=O)NCc1ccc(Cl)cc1,0.01,-0.91
COc1ccc(CC2S/C(=N/N=C/c3ccccc3O)NC2=O)cc1 (centres undefined),0.04,0.99
CC1CCN(CCCNC(=O)C2CC(=O)N(C3CCCCCC3)C2)CC1 (centres undefined),0.13,0.46
O=C(NC1CCCCC1)N1CCN(c2ccc([N+](=O)[O-])cc2)CC1,0.04,0.69
COc1ccccc1CC(=O)Nc1cccc(S(=O)(=O)N2CCOCC2)c1,0.13,-1.3
C=C1C(=O)C=C2CN(C(=O)c3ccccc3)[C@@](Cc3ccc(F)cc3)(C(=O)OC)[C@@H]12,4,2
Cc1nn(-c2ccc(NC(=O)c3ccncc3)cc2)c(C)c1Cl,1.6,2.1
CC(C)c1ccc(NC(=O)CNC(=O)Cn2ccc3ccccc3c2=O)cc1,3.3,-0.18
CS(=O)(=O)N1CCC(C(=O)NCc2ccncc2)CC1,0.08,0.41
CCOc1cccc2cc(C(=O)N3CCOCC3)c(=O)oc12,2,-0.16
Cc1c(N2C(=O)/C(=C3\C(=O)N(CC(=O)O)c4ccccc43)SC2=S)c(=O)n(-c2ccccc2)n1C,1.7,-0.66
Cc1sc(NC(=O)C2=COCCO2)c(C(N)=O)c1C,0.4,-0.08
COc1cc(CCC(=O)OCC(=O)Nc2c(Cl)cccc2Cl)cc(OC)c1OC,0.74,0.21
C=CCOc1ccc(/C(O)=C2/C(=O)C(=O)N(CCCN3CCOCC3)C2c2ccc(OC)cc2)cc1 (centres undefined),0.51,0.97
COc1ccc(N(CC(=O)NC2CCCCC2)C(=O)CCC(=O)Nc2nc(C)cs2)cc1,1.2,0.08
NC(=O)COC(=O)c1ccc(S(=O)(=O)NCc2ccco2)cc1,0.9,-2.2
CC1CC(C)CN(c2ccc(C(=O)NCc3ccc4c(c3)OCO4)cc2[N+](=O)[O-])C1 (centres undefined),8.9*,-0.38*
O=C(CSc1nc2ccccc2s1)NNC(=S)Nc1ccccc1,0.89,-1.9
Nc1nc(SCC(=O)Nc2ccc(F)cc2)[nH]c(=O)c1NC(=O)c1ccc(F)c(F)c1,0.24,-0.01

(list continues)
mol,KCNQ2 enhance,KCNQ2 enhance baseline
Cc1ccc(/C=C(/C#N)C(=O)NC(=O)Oc2ccccc2)cc1,0.49,1.5
O=C(O)c1ccccc1OC(C(=O)Nc1cc(Cl)cc(Cl)c1)c1ccccc1 (centres undefined),0.25,-0.01
Nc1ncc(CCN2CCOCC2)c(-c2ccc(F)cc2)n1,0.39,0.7
O=C(Nc1ccc(S(=O)(=O)NCC2CCCO2)cc1)c1ccc(Cl)cc1[N+](=O)[O-] (centres undefined),0.83,-2.6
Cc1ccc2c(CC(=O)NCc3ccc4c(c3)OCO4)coc2c1,0.5,0.3
Cc1c(NC(=O)CCc2ccccc2)cccc1[N+](=O)[O-],0.28,-0.72
CCOc1ccccc1/C=C\c1nc(O)c([N+](=O)[O-])c(=O)[nH]1,0.62,0.9
Cc1ccc(NC(=O)c2ccccc2CCc2ccccc2)c(C)c1,0.71,-0.43
CC1CCN(C(=S)c2ccc(O)cc2)CC1,1.1,1.6
COc1ccc2ccccc2c1/C=N/Nc1ccc(Cl)c(C(=O)O)c1,0.01,-0.6
COc1cccc(/C=C/C(=O)OCC(=O)Nc2nnc(-c3ccccc3)o2)c1,0.41,0.25
O=C(CCS(=O)(=O)c1cccc2nonc12)N1CCOCC1,1.3,-0.87
Cc1ccc(NS(=O)(=O)c2ccc(NC(=O)N3CCCCC3)cc2)cc1,0.76,0.98
Cc1ccc(Nc2nc(N3CCOCC3)c3ccccc3n2)cc1,0.09,-1.8
CC(=O)C1=C(O)C(=O)N(Cc2cccnc2)C1c1ccc(Cl)cc1Cl (centres undefined),0.93,-1.5
CCOc1ccc(OCC)c(NC(=O)CCn2cccc2)c1,0.56,-0.26
CCn1c(SCC(=O)Nc2cc(C)on2)nnc1-c1cccs1,1.2,0
COc1ccc(-c2nc(CS(=O)CC(=O)NC3CCCC(C)C3C)c(C)o2)cc1OC (centres undefined),1.2,0.12
CCC(C)c1ccc(OCCN2CCCC2)cc1 (centres undefined),2.3,1.2
Cc1cc(-c2csc(NC(=O)C3=COCCO3)n2)c(C)n1C,0.67,-1.4
CCOCCCNC(=O)C(NC(=O)Cc1cccs1)c1ccc(C)cc1 (centres undefined),0.75,0.85
Cc1ccc(NC(=O)CCC(=O)NNC(=O)c2cccs2)c(C)c1,0.15,0.76
Cc1cc(C)n2nc(C(=O)Nc3cccc(S(=O)(=O)N(C)c4ccccc4)c3)nc2n1,0.43,-0.04
Cc1ccc(N(C(=O)C2COc3ccccc3O2)C(C(=O)NC2CCCCC2)c2cn(C)nc2C)cc1 (centres undefined),0.49,0.2
O=C(COc1ccccc1)NCC(=O)NC1=NCCS1,0.08,-0.63

At a glance, part of the list above.
mol,KCNQ2 enhance,KCNQ2 enhance baseline
Cc1ccc(NC(=O)CCC(=O)NNC(=O)c2cccs2)c(C)c1,0.15,0.76
Cc1cc(C)n2nc(C(=O)Nc3cccc(S(=O)(=O)N(C)c4ccccc4)c3)nc2n1,0.43,-0.04
Cc1ccc(N(C(=O)C2COc3ccccc3O2)C(C(=O)NC2CCCCC2)c2cn(C)nc2C)cc1 (centres undefined),0.49,0.2
O=C(COc1ccccc1)NCC(=O)NC1=NCCS1,0.08,-0.63

Continued:
mol,KCNQ2 enhance,KCNQ2 enhance baseline
N#Cc1ccc(C(=O)Nc2cc(S(=O)(=O)N3CCCC3)ccc2OCC(F)(F)F)cc1,0.64,-0.43
O=C(Nc1ccccc1[N+](=O)[O-])c1cc(S(=O)(=O)N2CCOCC2)cs1,1.5,-1.1
CCNS(=O)(=O)c1ccc2c(c1)NCC2,2.1,-0.73
O=C(COc1cccnc1[N+](=O)[O-])NCc1ccccc1,0.35,-0.17
O=C(Nc1ccccc1OC(=O)c1ccc(Cl)cc1)c1ccc(Cl)cc1,0.06,0.95
C=CCNCc1ccccc1[N+](=O)[O-],0.97,-1.3
CCOC(=O)c1sc(N(Cc2ccccc2)C(=O)CCl)nc1C,0.1,1.7
CC(Sc1cccc[n+]1[O-])c1ccccc1 (centres undefined),0.76,0.39
CCCCNC(=S)Nc1ccc(Cl)cc1,2.1,0.33
Cc1ccc(Cl)c(NC(=O)CN2CCNC(=O)C2)c1Cl,0.95,0.58
CSc1nc(Sc2cccc(Cl)c2)c2ccccc2n1,0.88,0.33
O=C(NNC(=O)[C@@H]1CCCC[C@@H]1C(=O)O)Nc1ccccc1,0.39,-0.48
COc1cccc(S(=O)(=O)c2nc(C)c3c(n2)CCC3)c1,0.58,0.81
CN(C(=O)CSc1nnc(-c2ccc(F)cc2)c2ccccc12)C1CCS(=O)(=O)C1 (centres undefined),0.53,-0.42
CCC(C(=O)NC1CCCC1)n1c(SCc2cccc(C)c2)nc2ccncc21 (centres undefined),1.3,-2.9
CCN(c1ccccc1)S(=O)(=O)c1csc(C(N)=O)c1,0.21,0
O=C(Nc1cnc2sc3c(n2c1=O)CCCC3)c1ccc(F)cc1,2.3,1.2
COc1ccc(CN(C)Cc2nc(Cc3cccc(F)c3)no2)c2cccnc12,2.3,-1
CCOc1cc(/C=N/Nc2ccc(C(=O)O)cc2)ccc1OC(=O)c1ccccc1C,0.01,0
COc1cc(O)c(C(CCN2CCCCC2)c2ccc(N(C)C)cc2)c(OC)c1 (centres undefined),1.6,0.56
O=C(NCC(c1cccs1)N1CCOCC1)c1cc(S(=O)(=O)N2CCOCC2)ccc1F (centres undefined),0.88,-0.46
CCOc1ccccc1N1CCN(CC(=O)Nc2nnc(CC)s2)CC1,0.03,1.1
CCOC(=O)c1[nH]c2ccc(F)cc2c1N=C(C)N(CC)CC,0.83,0
CN(C)C(=S)Nc1nc2ccccc2s1,1.3,-0.03
O=C(COc1ccc(Br)cc1Cl)NC1CCCCC1,0.71,0.11
Cc1cccc(NC(=S)NNC(=O)c2cc3c(s2)CCC(C)C3)c1C (centres undefined),8.5*,-0.75*
CCCc1cc(=O)oc2cc(OC(C)C(=O)NCC3CCC(C(=O)O)CC3)ccc12 (centres undefined),1.7,0.04
O=C(CN1CCN(c2ccccc2F)CC1)c1ccc2c(c1)OCO2,0.05,-0.92
CCCC1=C(C(=O)OCC)C(c2ccccc2OC)NC(=O)N1 (centres undefined),0.82,-0.45
Cc1ccc(NC(=O)c2cccs2)cc1NC(=O)c1ccco1,1.2,-0.26
CCN1CCN(C(=S)c2ccc(SC)cc2)CC1,0.24,0.55
Cc1ccc(OCCn2cnc3c2c(=O)n(C)c(=O)n3C)cc1,2.4,0.91
CC(C)CCn1c(SCCN2CCOCC2)nc2c1c(=O)[nH]c(=O)n2C,0.6,0.99
COC(=O)CN1C(=O)C(C)(C)Oc2ccc(C(=O)NC3CCCC3)cc21,0.89,0
CCCCN1C(=O)C(NC(C)=O)c2ccccc21 (centres undefined),1.3,0.66
CCCOc1ccccc1-c1nc2c([nH]1)c(=O)[nH]c(=O)n2C,0.95,0.01
COc1ccc(C)cc1-n1nnnc1SCC(=O)Nc1cccnc1Cl,0.46,0.07
COc1ccc(C(=O)NC(=S)NCc2cccnc2)cc1Cl,2.4,3.7
O=C(NCCc1c[nH]c2ccccc12)C1CCN(S(=O)(=O)c2ccccc2)CC1,0.94,0
COc1ncnc(OC)c1S(=O)(=O)NCc1ccccc1,0.55,-1.3
O=C(CCS(=O)(=O)c1ccc(Cl)cc1)N1CCCc2ccccc21,1.2,-0.01

One compound at a time, from the list above.
Record of COc1ccccc1C(=O)NC(=O)COC(=O)CCOc1cc(C)ccc1C : KCNQ2 enhance = 1.1; KCNQ2 enhance baseline = 2.9
Record of O=C(COc1ccccc1)NCC(=O)NC1=NCCS1 : KCNQ2 enhance = 0.08; KCNQ2 enhance baseline = -0.63
